H5N1 CPE – antiviral screen in MDCK cells, H5N1 avian flu; cytopathic effect, luminescence, 72 h; stronger effect = higher value; no value below 0 was filed and about half of the inactive calls have no number; reference of the scale not given here; inhibition, % at 50 µM; 96,000 tested, 0.07% active; AID 740; in the data active means inhibition above about 25%
An asterisk follows results filed as active; i = inactive.

no.	compound	H5N1 CPE
1	Cc1nc(SCC(=O)NCCc2ccc(Cl)cc2)nc(C)c1C	0.6
2	COc1ccc(OC)c(C2=Nn3c(nnc3C3CCCCC3)SC2)c1	1.9
3	COc1ccc(C2N(c3ccc(OC)cc3)C(=O)C3CCCN32)cc1 (stereo unspecified)	i
4	O=C(CCl)NCc1c(Cl)cccc1-n1cccc1	0.6
5	Cc1ccc(OCC(=O)N2CCCCC2)c(Br)c1	0.0
6	Cc1ccc2nc(NC(=O)CCCc3nc4ccccc4s3)sc2c1	0.2
7	CCN(CC)c1nc2n(c(=O)n1)CCO2	0.0
8	O=C(Cc1cccs1)OCC(=O)c1ccco1	i
9	COc1ccc(C(C(=O)NC2CCCC2)N(Cc2ccccc2)C(=O)c2nsc(Cl)c2Cl)cc1 (stereo unspecified)	i
10	O=C(c1ccc(Br)o1)N1CCN=C1SCc1cccnc1	3.4
11	CCCCNc1oc(-c2cccs2)nc1S(=O)(=O)c1ccccc1	0.4
12	Cn1c(=O)n(C)c2cc(S(=O)(=O)NCc3ccco3)ccc21	5.3
13	CC(=O)C1=C(C)OC(N)=C(C#N)C1c1cc2cc(C)c(C)cc2nc1Cl (stereo unspecified)	0.2
14	COC(=O)c1sc(N2C(=O)C(O)=C(C(=O)c3ccc(C)o3)C2c2ccc(F)cc2)nc1C (stereo unspecified)	0.9
15	CCCCCOc1ccc(C2C(C(C)=O)=C(C)Nc3ncnn32)cc1OC (stereo unspecified)	i
16	O=C(Cc1ccccc1)Nc1ccc(-c2nnc(-c3ccco3)o2)cc1	i
17	CN(C)C(=O)Nc1cnc2ccccc2c1	i
18	N=C1C(c2nc3ccccc3c(=O)[nH]2)=C(O)CN1c1ccccc1	0.1
19	CCOC(=O)c1c(-c2cccs2)csc1NC(=O)CN(CC)CC	i
20	Cc1ccc(-c2nn(C)c(=O)c3ccccc23)cc1S(=O)(=O)N1CCCC1	1.3

Looked up one by one from the entries so far (two):
no.	compound	H5N1 CPE
15	CCCCCOc1ccc(C2C(C(C)=O)=C(C)Nc3ncnn32)cc1OC (stereo unspecified)	i
16	O=C(Cc1ccccc1)Nc1ccc(-c2nnc(-c3ccco3)o2)cc1	i

(listing goes on)
no.	compound	H5N1 CPE
21	Cc1sc(NC(=O)c2oc3ccccc3c2C)c(C#N)c1C	i
22	Cc1ccc(Cl)c2c1NC(=O)C2(O)CC(=O)c1ccccc1O (stereo unspecified)	i
23	COCCn1c(SCC(N)=O)nnc1-c1c[nH]c2ccccc12	i
24	COc1ccccc1-c1coc2cc(O)cc(O)c2c1=O	i
25	C=CCN1C(=O)C(Cc2ccc(Br)cc2)S/C1=N\N=C\c1ccco1 (stereo unspecified)	2.5
26	Cc1ccc(S(=O)(=O)N(CC(=O)Nc2cccc([N+](=O)[O-])c2)C2CCCCC2)cc1	i
27	COc1ccc(S(=O)(=O)NC(C)C(=O)Nc2ccccc2F)cc1 (stereo unspecified)	i
28	Cc1ccc(S(=O)(=O)c2cccc(S(=O)(=O)N3CCCC3)c2)cc1S(=O)(=O)N1CCCC1	12.7
29	Oc1oc(-c2ccccc2)nc1C=NCc1ccccc1	i
30	O=C1CC(SCc2nc3ccccc3[nH]2)C(=O)N1c1cccc(Cl)c1 (stereo unspecified)	i

Among those listed so far, 4 contain two or more sulfur atoms.
no.	compound	H5N1 CPE
6	Cc1ccc2nc(NC(=O)CCCc3nc4ccccc4s3)sc2c1	0.2
11	CCCCNc1oc(-c2cccs2)nc1S(=O)(=O)c1ccccc1	0.4
19	CCOC(=O)c1c(-c2cccs2)csc1NC(=O)CN(CC)CC	i
28	Cc1ccc(S(=O)(=O)c2cccc(S(=O)(=O)N3CCCC3)c2)cc1S(=O)(=O)N1CCCC1	12.7

(cont.)
no.	compound	H5N1 CPE
31	CCC(C)(C)n1nnnc1C(c1cc2cc(OC)ccc2[nH]c1=O)N1CCc2ccccc21 (stereo unspecified)	i
32	O=C(Nc1ccon1)c1cc(-c2ccccc2)nc2ccccc12	i
33	O=C1CN2C(=N1)N(Cc1ccccc1)c1ccccc12	0.2
34	O=C(CCn1c(=S)[nH]c2ccccc2c1=O)N1CCOCC1	0.6
35	Cc1ccc2[nH]c3c(NCCCN4CCCC4=O)ncnc3c2c1	i
36	O=c1[nH]c(=O)n(CCc2ccc(F)cc2)c(O)c1C=NCc1ccc2c(c1)OCO2	0.6
37	C=CCN1CCN(C(c2cc(OC)ccc2OC)c2nnnn2CC2CCCO2)CC1 (stereo unspecified)	i
38	CCOC(=O)/C=C1\Nc2ccccc2SC1=O	i
39	CC1(C)OC(=O)C(=CNc2ncccn2)C(=O)O1	0.4
40	COn1c(SCc2ccccc2)nc2ccccc2c1=O	i
41	CCOc1cc(C2NC(=O)NC(C)=C2C(=O)OC(C)CC)cc(Br)c1O (stereo unspecified)	i
42	CC(=O)N1CCc2cc(C(=O)CN3CCN(c4ccccc4F)CC3)ccc21	1.4
43	CCN1CCN(CCCNC(=O)C2CCCN(c3nnc(-n4cccc4)s3)C2)CC1 (stereo unspecified)	i
44	CCOc1ccc(N(Cc2cc3ccc(C)cc3[nH]c2=O)S(C)(=O)=O)cc1	0.7
45	CN(CCNC(=O)Cn1c(=O)sc2ccccc21)Cc1ccccc1	0.1
46	Fc1ccc(-c2noc(C3CCN(Cc4cccnc4)CC3)n2)cc1	0.7
47	O=C(CS(=O)c1cccc(C(F)(F)F)c1)Nc1ccccc1Cl (stereo unspecified)	i
48	O=C(Nc1ccc(Cl)cc1)c1ccc(-n2cncn2)c([N+](=O)[O-])c1	i
49	CC(C)C(C(=O)Nc1ccc2c(c1)OCCO2)N1C(=O)c2ccccc2C1=O (stereo unspecified)	i
50	COc1cc(-c2cc(N)n(S(=O)(=O)c3ccccc3)n2)cc(OC)c1OC	0.7
51	CCOc1cc2[nH]c(=O)n(CCCN3CCCC3=O)c(=O)c2cc1OCC	i
52	Cc1c(/C(O)=C2/C(=O)C(=O)N(Cc3cccnc3)C2c2cccs2)cnn1-c1ccccc1 (stereo unspecified)	i
53	Cc1ccc(S(=O)(=O)CCC(=O)Nc2ccc3c(c2)OCO3)cc1	i
54	O=C(O)CCNc1cc2ccccc2cc1C(=O)O	i
55	CCOC(=O)Cn1c2ccccc2c2nc3ccccc3nc21	i
56	COC(=O)c1ccccc1NC(=O)CSc1nnc(COc2cccc(OC)c2)n1C	0.6
57	O=C(Nc1cc(C(F)(F)F)ccc1N1CCOCC1)c1cncc(Br)c1	i
58	COc1cc(C(=O)N/N=C/c2ccsc2C)cc(OC)c1OC	i
59	COc1cc2ccccc2c2c1CCCC2=O	0.6
60	Cc1cc(OCC(=O)O)c2c3c(c(=O)oc2c1)CCCC3	i
61	CCCCNC(=O)Cn1cnc2c(cnn2-c2ccc(C)c(C)c2)c1=O	1.2
62	CCOC(=O)N1CCN(C(=O)c2ccc3c(=O)n(CC4CCCO4)c(=S)[nH]c3c2)CC1 (stereo unspecified)	i
63	CC(C)N(C1=N/C(=C\c2ccco2)C(=O)N1c1ccccc1)C(C)C	2.7
64	O=C(CN1CCCCC1)Nc1cccc2c1OCO2	2.3
65	COc1ccc(C(=O)c2ccc(CC#N)s2)cc1	i
66	Cc1cccn2c(=O)c3cc(C(=O)NCC4CCCO4)c(=N)n(CCN4CCOCC4)c3nc12 (stereo unspecified)	2.7
67	Cc1ccc(-c2noc(CCC(=O)NCc3ccc4c(c3)OCO4)n2)cc1	i
68	CCCC1C(C#N)=C(N)Oc2cc(C)n(C)c(=O)c21 (stereo unspecified)	i
69	COC(=O)c1cccc(NC(=O)CSc2nc(C)cc(=O)[nH]2)c1	1.0
70	CCOC(=O)c1ccc(Oc2nc(NC)nc(OC)n2)cc1	0.3
71	COc1cccc(/C=N/NC(=O)CSc2nnc(C)n2-c2ccccc2)c1OC	0.6
72	CCOC(=O)CN1CC23C=CC(O2)C(C(=O)NC2CCCCCC2)C3C1=O (stereo unspecified)	1.1
73	CCN(CC)CCC(=O)NC(C)(C)Cc1ccc(O)cc1	2.7
74	CC(=O)c1c(C(C)=O)c(C)n(NC(=O)c2ccccc2O)c1C	0.0
75	Cc1nc(Cc2nnc(SCc3nc(N)nc(Nc4ccccc4C)n3)o2)cs1	i
76	Cc1ccc(C(c2nnnn2CCC(C)C)N2CCN(C)CC2)cc1 (stereo unspecified)	i
77	Cc1nc2c(C(=O)NCCC3=CCCCC3)c[nH]n2c(=O)c1Cl	i
78	C=CCNc1nc(NC(C)(C)CO)nc(OCC)n1	0.8
79	Cc1nnc2n(-c3ccccc3)c(=O)c3c4c(sc3n12)CC(C)CC4 (stereo unspecified)	2.1
80	COC(=O)c1c(C)oc2ccc(N(C(=O)c3ccncc3)S(=O)(=O)c3ccccc3)cc12	0.8

(cont.)
no.	compound	H5N1 CPE
81	C=CCn1c(COc2ccc(CC)cc2)nnc1SCC(=O)NC1CCS(=O)(=O)C1 (stereo unspecified)	2.0
82	COc1ccc(N2CCN(Cc3nc(N)nc(Nc4ccc(C)c(Cl)c4)n3)CC2)cc1	i
83	COc1ccc(S(=O)(=O)N2CCN(C)CC2)c2ccccc12	1.4
84	CCOC(=O)C(C(=O)OCC)C(Nc1ccc(Br)cc1)c1ccccc1 (stereo unspecified)	i
85	Cc1cc(C2N=C(N)Nc3nc4ccccc4n32)c(C)n1-c1ccccc1Cl (stereo unspecified)	i
86	CCCn1nnc2sc3c(c2c1=O)CCC(C)C3 (stereo unspecified)	0.3
87	CCOC(=O)C1CCCN(C(=O)C2CCN(S(=O)(=O)N3CCC4(CC3)OCCO4)CC2)C1 (stereo unspecified)	0.1
88	O=C(CNCc1ccco1)Nc1ccccc1-n1cccc1	3.3
89	Cc1cc(C)n(-c2nc3ccccc3c3nc(C)nn23)n1	0.2
90	CN(C)c1ccc2c(c1)OC(N)=C(C#N)C2c1cccc(F)c1 (stereo unspecified)	0.1

Of the compounds above, two contain a nitro group on carbon.
no.	compound	H5N1 CPE
26	Cc1ccc(S(=O)(=O)N(CC(=O)Nc2cccc([N+](=O)[O-])c2)C2CCCCC2)cc1	i
48	O=C(Nc1ccc(Cl)cc1)c1ccc(-n2cncn2)c([N+](=O)[O-])c1	i

Taken from above.
COc1ccc(S(=O)(=O)N2CCN(C)CC2)c2ccccc12 | H5N1 CPE: 1.4
CN(C)c1ccc2c(c1)OC(N)=C(C#N)C2c1cccc(F)c1 (stereo unspecified) | H5N1 CPE: 0.1
Cc1cc(C)n(-c2nc3ccccc3c3nc(C)nn23)n1 | H5N1 CPE: 0.2

Next part
no.	compound	H5N1 CPE
91	CN1CCc2nc(SCC(=O)Nc3ccc(F)cc3)c(C#N)cc2C1	2.1
92	O=C(Cc1cccc2ccccc12)N1CCCc2ccccc21	0.2
93	COC(=O)c1ccc(NC(=O)C(=O)N2CCCC2)cc1	i
94	CCCCCNC(=O)c1ccc2c(=O)n(CCOC)c(=O)[nH]c2c1	0.3
95	Cc1ccc(S(=O)(=O)Nc2nc3ccccc3s2)cc1	i
96	CC1CCCN(CC(=O)Nc2ccc(S(=O)(=O)N3CCCCCC3)cc2)C1 (stereo unspecified)	i
97	COc1ccc(-c2onc3ccc(Cl)cc23)cc1	i
98	c1nnc2c3c4c(sc3ncn12)CCCC4	i
99	Cc1cccc(NC(=O)c2sccc2-n2cccc2)c1C	2.1
100	COc1c2c(nc3occc13)C(CCC(C)(C)O)(OC)C(O)CC2 (stereo unspecified)	0.7
101	Cc1cc(C)n(-c2nc3ccccc3nc2N2CCCCCC2)n1	0.8
102	O=C(Nc1ccc2oc(-c3ccccc3F)nc2c1)c1cncc(Br)c1	0.6
103	CC(C)NS(=O)(=O)c1ccc(NC(=O)C2CCCCC2)cc1	i
104	O=C(OCn1ncc(Cl)c(Cl)c1=O)c1ccc(C(F)(F)F)cc1	i
105	COC(=O)c1[nH]c(C)c(/C(O)=C2\C(=O)C(=O)N(CCN(C)C)C2c2cc(OC)ccc2OC)c1C (stereo unspecified)	i
106	COCCCn1c(SCC(=O)OC2CCCCC2)nnc1-c1ccco1	i
107	CCC(=O)Nc1ccc(C(=O)n2ccc(C)n2)cc1	0.2
108	COc1cc(NS(=O)(=O)c2ccc(NC(=S)NC(=O)C3CCCC3)cc2)nc(OC)n1	0.2
109	COc1cc(C)c(Cl)cc1S(=O)(=O)N(C)C	0.7
110	C/C(CCc1oc2ccccc2c1-c1ccc(C)o1)=N/O	1.6
111	CCCCN1C2=C(C(=O)CCC2)C(c2ccc(Cl)c(Cl)c2)C2=C1c1ccccc1C2=O (stereo unspecified)	i
112	COc1ccc(CCNC(=O)c2nnn(CC(=O)Nc3ccccc3)c2N)cc1OC	i
113	COc1ccc(C2(CN(C(C)=O)C(C)=O)CCCC2)cc1OC	2.5
114	CCn1c(Cc2cccs2)nnc1SCC(=O)Nc1ccc(OC)c(OC)c1	0.2
115	CC1(C)CCCN(C(=O)c2coc(=O)c(Br)c2)C1	i
116	CC1CN(S(=O)(=O)c2cccc(C(=O)OCC(=O)Nc3ccc4c(c3)OCO4)c2)CC(C)O1 (stereo unspecified)	0.8
117	O=C(O)CSc1c2c(nc3cc(C(=O)N4CCOCC4)ccc13)CCCC2	i
118	c1cc(C(c2nnnn2C2CCCC2)N2CCOCC2)ccn1 (stereo unspecified)	1.8
119	CCOC(=O)c1sc(N(Cc2ccccc2)C(=O)CN2C(=O)CN(C)C2=O)nc1C	0.6
120	CC(=O)Nc1ccccc1C(=O)OCC(=O)c1ccc2ccccc2c1	i
121	CC(O)CNCCNCc1c(OCc2ccccc2)ccc2ccccc12 (stereo unspecified)	i
122	CC(C)Cn1c(Br)nc2c1c(=O)n(CCC#N)c(=O)n2C	2.3
123	COc1cc(CNCCO)ccc1OCC(=O)Nc1ccc(Br)cc1	i
124	COc1cc(N2CCCC2)c(OC)cc1/C=C(/C#N)c1ccc(Br)cc1	2.0
125	N#Cc1ccccc1Cn1c(-c2cscn2)nc2ccccc21	i
126	CCCc1cc(Nc2cccc(OC)c2)n2ncnc2n1	i
127	COc1ccc(CCN(C)Cc2ccc(F)cc2F)cc1OC	i
128	COc1ccc(OC/C(O)=C(\C#N)c2nc3ccccc3[nH]2)cc1	i
129	c1ccc(-c2nc(N3CCCCCC3)c3ccccc3n2)nc1	15.6
130	COC(=O)c1ccccc1NC1c2ccccc2C(=O)N1c1cccnc1 (stereo unspecified)	0.8
131	c1ccc(-n2nnnc2-n2cnc3ccccc32)cc1	0.3

Screens deposited in PubChem by SRMLSC.

This is a subset (hit frequency here may not be typical).
